Bioassay records: PubChem, National Center for Advancing Translational Sciences (NCATS)
VDR inhibitor: inhibitors of human vitamin D receptor; Potency, µM, for inactives: max response, negative = inhibition, most hits filed as inhibitors; VDR-SRC2-3 peptide fluorescence polarization, 2 h; actives 0.93% (n = 400,000); P11473; active = well fitted inhibition curve with a large enough effect; inconclusive = small, poorly fitted or top-dose-only effect, or another doubt; inactive = no such curve, though single readings can be large or run the other way; also: series mostly up to about 120 µM
Target sequence (P11473 whole entry, looked up): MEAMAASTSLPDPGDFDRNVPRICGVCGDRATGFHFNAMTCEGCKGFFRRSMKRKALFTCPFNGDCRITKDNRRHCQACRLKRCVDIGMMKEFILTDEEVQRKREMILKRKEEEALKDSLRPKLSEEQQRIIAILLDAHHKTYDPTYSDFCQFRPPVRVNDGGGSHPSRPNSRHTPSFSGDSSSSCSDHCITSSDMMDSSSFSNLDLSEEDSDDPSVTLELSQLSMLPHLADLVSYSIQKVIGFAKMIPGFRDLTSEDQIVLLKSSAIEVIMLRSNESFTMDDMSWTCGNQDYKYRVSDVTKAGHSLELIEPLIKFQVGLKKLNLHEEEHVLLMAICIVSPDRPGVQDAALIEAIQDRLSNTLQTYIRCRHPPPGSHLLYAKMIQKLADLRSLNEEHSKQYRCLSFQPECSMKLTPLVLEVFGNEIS
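Inhibition of the VDR/SRC2-3 peptide interaction is quantified by fluorescence polarization. Compounds (23 nl, pintool) incubate with the reagents for 2 hours at ambient room temperature.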
* = called active by the depositor; ? = inconclusive; & = joins results of further samples; [ ] = another dose, or the depositor's remark. % is scaled to controls: 0 for no effect and ±100 for the full control effect; potency is read from the fitted curve at half-maximal effect. Only part of the results is shown, so the mix of outcomes need not match the whole.

SMILES	VDR inhibitor
COc1cc(OC)cc(C(=O)NC2CCSc3ccccc32)c1 (centres undefined)	3%
O=C(CSC1=NS(=O)(=O)c2cc(F)ccc2N1)Nc1cccc(F)c1	8%
O=[N+]([O-])c1cccc(-c2cn3ccccc3n2)c1	-17%
CC1=C(C(=O)OC(C)C)C(c2ccccc2)NC(=O)N1C (centres undefined)	-1%
O=C(NCc1ccco1)Nc1ccccc1Cl	13%
COc1ccc(NC(C)=O)c2nc(C)c(C)nc12	9%
O=C(O)Cn1cnc2c(=S)nc[nH]c21	-11%
CC(=O)Nc1cccc(OCCCOc2ccc([N+](=O)[O-])cc2)c1	6%
CCCc1cc(=O)oc2cc(C)cc(OCC(=O)Nc3ccccn3)c12	-1%
CCc1cc(C(=O)c2ccc(OC)cc2)c(NC(=O)CN2CCCC2)s1	8%
COc1cc(NC(=O)C(Cc2ccccc2)NS(=O)(=O)c2cccc3nsnc23)cc(OC)c1 (centres undefined)	-20%
Cc1ccc(-c2csc3nc(CN(C)Cc4ccccc4)[nH]c(=O)c23)cc1	5%
O=C(OCCNc1ncc(C(F)(F)F)cc1Cl)c1ccc(S(=O)(=O)N2CCOCC2)cc1	4%
CCN(Cc1ccccc1)S(=O)(=O)c1ccc(F)c(C(=O)Nc2ccc(C(C)C)cc2)c1	3%
OC(CNCc1ccccc1)c1ccccc1 (centres undefined)	2%
CC(=O)Oc1ccc2c(c1)cc(C)n2C	6%
Cc1cccnc1CC(C)NC(=O)c1cc(COc2cncc(Cl)c2)on1 (centres undefined)	0%
COc1ccccc1N(C(=O)c1snc(C(N)=O)c1N)C(C(=O)NCc1ccccc1)c1ccc(C)o1 (centres undefined)	-22%
CCn1c(SCc2ccc(Cl)cc2)nc2nc3c(cc2c1=O)CCCC3	-15%
CCOc1ccccc1NC(=O)CN(c1cc(C)cc(C)c1)S(=O)(=O)c1c(C)noc1C	-5%
Cc1ccc(S(=O)(=O)N/N=C\c2ccc([N+](=O)[O-])o2)cc1C	-13%
Cc1nc(NCc2ccc(S(N)(=O)=O)cc2)c2c(C)c(C)sc2n1	-1%
O=C1C2CC=CCC2C(=O)N1c1nccs1 (centres undefined)	4%
CC(=O)OC[C@H]1O[C@@H](n2ccc(=O)[nH]c2=S)C(OC(C)=O)C1OC(C)=O (some centres undefined)	-6%
CC(=O)c1cccc(NC(=O)/C(=C\c2cccnc2)NC(=O)c2ccc(C)cc2)c1	1%
Cc1ccc(-n2cc(C(=O)OCc3ccc(Cl)cc3)c3ccccc3c2=O)cc1	2%
CC1CCCCN1S(=O)(=O)c1ccc2c(c1)CCN2C(=O)C1CC1 (centres undefined)	-25%
CCC(C)C(=O)Nc1nc(C)c(-c2csc(Nc3cc(Cl)ccc3OC)n2)s1 (centres undefined)	-7%
CCOc1cccc2sc(N(CCN(C)C)C(=O)c3ccc4c(c3)OCCO4)nc12	-15%
COc1ccccc1/C=C/C(=O)OCC(=O)NNC(=O)c1ccccc1	6%
O=C(CSc1nc2c([nH]c3ccccc32)c(=O)n1-c1ccccc1)Nc1ccc(Cl)c(Cl)c1	10%
Cc1cc(C)cc(NC(=O)C2CCN(S(=O)(=O)c3ccc4c(c3)NC(=O)C(C)S4)CC2)c1 (centres undefined)	4%
O=C(Nc1ccc2c(c1)OCCO2)C1CC1c1ccccc1 (centres undefined)	-8%
CC1(C)CC(=O)C(C(=O)/C=C/c2ccco2)C(=O)C1	?
Cc1cccc(NC(=O)c2nc(-c3ccccc3)n(-c3ccccc3)n2)c1C	6%
CS(=O)(=O)N1CCN(c2ccccc2NC(=O)CSc2ccc(Cl)cc2)CC1	6%
CCN(Cc1cnn(C)c1)C(=O)c1cc(COc2cc(C)c(Cl)c(C)c2)on1	-10%
COc1ccccc1NCC(=O)NNC(C)C(=O)Nc1cccc(Cl)c1 (centres undefined)	-14%
COc1ccc(/C=N\Nc2ccc([N+](=O)[O-])cc2)c(C(=O)O)c1OC	-8%
CC(=O)Nc1ccc(S(=O)(=O)Nc2cccc(-c3nc4ccccc4o3)c2)cc1	-6%
Cc1cc2nc(-c3ccc[nH]c3=O)[nH]c2cc1C	-5%
CCOC(=O)c1c(NC(=O)CSc2nc3ccccc3o2)sc(C)c1C	4%
Cn1cnnc1SCc1cccc(Br)c1	1%
O=C(CNS(=O)(=O)c1ccccc1)N1CCc2ccccc2C1	-17%
Cc1ccc(S(=O)(=O)N2CCN(C(=O)C3COc4ccccc4O3)CC2)cc1C (centres undefined)	-16%
Cn1c(=O)c2c(nc(Sc3ncnn3CC(=O)NC(C)(C)C)n2C)n(C)c1=O	6%
CCOC(=O)c1ccc(NC(=O)CN(Cc2ccc(C)cc2)S(=O)(=O)c2ccc(C)cc2)cc1	-9%
Cc1cc(C)c2nc(Cl)c(CN(Cc3ccco3)C(=O)Nc3ccccc3C)cc2c1	-1%
CC(C)CN(Cc1c(O)ccc2c3c(c(=O)oc12)CCC3)CC(C)C	-22%
O=C(c1ccc(Br)o1)N1CCN(Cc2ccc3c(c2)OCO3)CC1	16%
O=C(O)c1ccccc1C(=O)Nc1c(-c2ccccc2)nc2ccccn12	-12%
Cc1cccc(NC(=O)c2ccc(C(=O)Nc3cccc(C)c3C)cc2)c1C	49%[activator]
CCOC(=O)c1oc2ccccc2c1NC(=O)C(C)(C)C	17%
CC(=O)Nc1nnc(SCC(=O)NCc2ccc3c(c2)OCO3)s1	4%
O=C(Cc1ccccc1F)N1CCN(S(=O)(=O)c2ccc(Cl)cc2)CC1	-1%
COc1cc(C=O)ccc1Oc1nnnn1-c1ccc(C(N)=O)cc1	1%
CCC(C)(C)n1nnnc1C(c1ccccc1)N1CCN(C2CCCC2)CC1 (centres undefined)	-12%
O=C(O)CSc1nnc(-c2ccc(Cl)cc2Cl)n1-c1ccccc1	4%
O=C(CSc1ccc(F)cc1)Nc1ccc(Br)cc1	-10%
COc1ccc(OCC(=O)N2CCC(n3nccc3NC(=O)C3CC3)CC2)cc1	1%

Following part.
SMILES	VDR inhibitor
O=C(Nc1ccc(N2CCOCC2)cc1)C1CCN(S(=O)(=O)c2ccc3c(c2)OCCO3)CC1	-14%
CCc1ccc(NC(=O)c2n[nH]c(=O)c3ccccc23)cc1	-1%
O=C(CCc1ccccc1)Nc1cc(Cl)ccc1O	15%
CCc1ccccc1NC(=O)c1cnc2n(c1=O)CCS2	2%
CC(C)N(C)CCOC(=O)c1ccccc1Cl	-2%
COc1ccc(CN(Cc2nc3ccccc3c(=O)[nH]2)C(=O)c2ccco2)cc1	12%
O=C(CN1C(=O)C2CCCCC2C1=O)Nc1ccc(OC(F)F)c(Cl)c1 (centres undefined)	-5%
CCC(=O)c1ccc(OCC(O)CN2CCN(C(c3ccccc3)c3ccccc3)CC2)cc1 (centres undefined)	-1%
c1cncc(Nc2c3ccccc3nc3ccccc23)c1	0%
O=C(COc1ccc(Br)cc1Br)NNC(=O)c1cccs1	8%
CCOC(=O)c1c(C)[nH]c(=S)c(C#N)c1-c1ccccc1	-22%
Cn1cc(CN2CCN(c3ccccc3)CC2)c2ccccc21	0%
C/C(=N\NC(=O)c1cc2c(s1)CCC(C)C2)c1ccc[nH]1 (centres undefined)	-20%
CC(=O)NS(=O)(=O)c1ccc(NC(=O)c2ccc(S(=O)(=O)N3CCCC3)cc2)cc1	3%
CC(C)CCCCCCCCCCCCC(=O)NCC(=O)NC1C(O)C(O)C(Nc2ncnc3nc[nH]c23)OC1C(O)CO (centres undefined)	-6%
CCOC(=O)c1c(CN2CCN(C)CC2)n(C)c2cc(Br)c(OC)cc12	-10%
CN(Cc1nccn1C)C(=O)CC1C(=O)NCCN1Cc1cccc(Oc2ccccc2)c1 (centres undefined)	27%
Cc1cc(C(=O)NNc2ccc(C)c(C)c2)no1	-5%
CC1/C(=C\c2ccc(Cl)cc2)C(=O)C2CC1C2(C)C (centres undefined)	-11%
O=C(/C=C/c1cccnc1)c1cccc(O)c1	?

Rewritten as labelled records: part of the list above
CC(=O)NS(=O)(=O)c1ccc(NC(=O)c2ccc(S(=O)(=O)N3CCCC3)cc2)cc1
  VDR inhibitor: 3%
CC(C)CCCCCCCCCCCCC(=O)NCC(=O)NC1C(O)C(O)C(Nc2ncnc3nc[nH]c23)OC1C(O)CO (centres undefined)
  VDR inhibitor: -6%
CCOC(=O)c1c(CN2CCN(C)CC2)n(C)c2cc(Br)c(OC)cc12
  VDR inhibitor: -10%
CN(Cc1nccn1C)C(=O)CC1C(=O)NCCN1Cc1cccc(Oc2ccccc2)c1 (centres undefined)
  VDR inhibitor: 27%

Remaining list, next part:
SMILES	VDR inhibitor
CN(C)/C=N/c1nccc(-c2cccs2)n1	1%
CCN(CC)CCCN(C)C(=O)Cn1nc(Cc2ccncc2)c2ccccc2c1=O	7%
NC(=O)COC(=O)c1cc(=O)[nH]c2ccc(S(=O)(=O)Nc3ccc(F)cc3)cc12	-3%
CC(/C=C/c1ccc(N(C)C)cc1)=N\N=C(/N)SC1CC(=O)N(c2ccc(C(=O)O)cc2)C1=O (centres undefined)	-21%
Cc1cc(C)cc(NC(=O)CN2CCN(C(=O)c3cccs3)CC2)c1	-6%
CCn1c(-c2ccc(C)cc2)n[nH]c1=S	-10%
O=C(O)CCC(=O)N(Cc1cccnc1)Cc1cccc(F)c1	-13%
COC(=O)[C@@]1(Cc2ccc(F)cc2)[C@H]2c3cc(C(=O)N(C)C)n(CCSCCO)c3C[C@H]2CN1C(=O)c1ccccc1	-4%
Cc1ccc(S(=O)(=O)N(C)C[C@@H]2Oc3c(NS(C)(=O)=O)cccc3C(=O)N([C@H](C)CO)C[C@@H]2C)cc1	1%
CC1CCCN(C(=O)CCNC(=O)c2ccccc2Cl)C1 (centres undefined)	9%
COCCn1c(=O)c(-c2ccccc2)nc2cncnc21	1%
CCN(CC)S(=O)(=O)c1ccc(N2CCOCC2)c(NC(=O)c2ccccc2F)c1	-16%
Cc1cc(C(=O)N/N=C/c2c(C)[nH]n(-c3ccccc3)c2=O)n[nH]1	1%
Cc1oc2nc(SCCCC(=O)NCCCO)nc(N)c2c1C	1%
Cc1cccc(CCNC(=O)Cn2ncc3c(=O)oc4ccccc4c32)c1	-5%
O=C(O)c1cccc(N2C(=S)N=C(Nc3ccccc3)C23CCCCC3)c1	-12%
CCc1cc(Br)ccc1N1C(=O)C2CC=CCC2C1=O (centres undefined)	5%
COc1ccc(OCCCC(=O)Oc2ccc(OC)cc2)cc1	-9%
O=C(Cn1c(=O)c2cccn2c2cccnc21)N1CCN(c2ccccc2F)CC1	-18%
O=C(Nc1cccc2cccnc12)c1cccc2ccccc12	-2%&-3%
Cc1nc(C)c(C(=O)O)c(-c2cccs2)c1C(=O)O	4%
O=C(O)C1=CC2C=C(Cl)C=CC2OC1=O (centres undefined)	-1%
Cc1cccc(/C=N/NC(=O)c2cccc([N+](=O)[O-])c2)n1	-16%
c1ccc(Sc2nc(N3CCCCC3)nc(N3CCCCC3)n2)nc1	2%
Cc1cccc(-c2noc(-c3ccc(N4CCN(C)CC4)c([N+](=O)[O-])c3)n2)c1	18%
CC1CCN(S(=O)(=O)c2ccc3nc(-c4cccnc4)cc(C(=O)NCCCOC(C)C)c3c2)CC1	14%
COc1ccc(CN2CCN(Cc3ccccc3F)CC2)c(OC)c1	-3%
C[C@@]12CC(=O)C3=C(CCCC3=O)N1CCc1ccccc12	-4%
COc1ccccc1C(=O)N1CCN(Cc2cccnc2)CC1	14%
CC(NS(=O)(=O)c1ccc(Cl)c(Cl)c1)C(=O)OCC(=O)Nc1ccc2c(c1)OCO2 (centres undefined)	0%
CCOc1cc(N2CCOCC2)c(OCC)cc1NC(=O)CSc1ncccc1C(=O)O	7%
Cc1cc(Br)ccc1OCCCCN1CCCCC1	-16%
O=C(O)CN1C(=O)C2C3CC(C2C1=O)C1C(c2ccc(Cl)cc2)c2sc(=O)[nH]c2SC31 (centres undefined)	-20%
CCn1c(SCC(=O)N/N=C/C=C\c2ccccc2[N+](=O)[O-])nnc1-c1ccccc1	-13%
CCOC(=O)c1c(-c2cccs2)csc1NC(=O)CN1CC(C)OC(C)C1 (centres undefined)	-6%
COc1ccc(OCC(=O)NC2CC(=O)N(c3ccc4c(c3)OCCO4)C2)cc1 (centres undefined)	10%
CC(C)CNC(=O)NC(=O)COc1ccc(C=O)cc1	-2%
Cc1nnc(SCC(=O)NC2CC2)n1-c1ccccc1	8%
N#Cc1ccccc1NC(=O)c1cc2c(=O)n3ccccc3nc2s1	1%
CCOC(=O)c1c(-c2ccc(C)cc2)csc1/N=C(\C)C1=C(O)c2ccccc2C1=O	-11%

Given with each value named: 2 of the compounds above.
Cc1cc(Br)ccc1OCCCCN1CCCCC1
  VDR inhibitor: -16%

O=C(O)CN1C(=O)C2C3CC(C2C1=O)C1C(c2ccc(Cl)cc2)c2sc(=O)[nH]c2SC31 (centres undefined)
  VDR inhibitor: -20%

3 of the compounds above, with each value named.
CCOC(=O)c1c(-c2cccs2)csc1NC(=O)CN1CC(C)OC(C)C1 (centres undefined)
- VDR inhibitor: -6%
COc1ccc(OCC(=O)NC2CC(=O)N(c3ccc4c(c3)OCCO4)C2)cc1 (centres undefined)
- VDR inhibitor: 10%
CC(C)CNC(=O)NC(=O)COc1ccc(C=O)cc1
- VDR inhibitor: -2%

Next part.
SMILES	VDR inhibitor
COc1ccc(CNc2ccc(N3CCOCC3)cc2)cc1	-17%
Nc1ncnc(NCc2ccccc2)c1[N+](=O)[O-]	-8%
COc1ccc(N2CCN(C(=O)c3ccc(CS(=O)Cc4ccc(C)cc4)o3)CC2)cc1 (centres undefined)	4%
CCOC(=O)Cc1csc(NC(=O)COc2ccc3c(c2)CCC3)n1	?
COc1ccc(NC2CCCN(C(=O)CCN3CCCC3=O)C2)cc1 (centres undefined)	5%
COc1cc2oc(=O)c3c(c2cc1OCC(=O)c1c(C)n(C)c2ccccc12)CCCC3	-1%
